Source: PubChem BioAssay
Mtb bLac sens = beta-lactam sensitization of Mtb H37Rv; inhibition, % at 25 µM; M. tuberculosis H37Rv growth with meropenem, percent inhibition; hits of this screen are not shown here; actives 0.27% (n = 330,000); AID 434955;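 active = about 74% or more and at least 40 points above the plate without the antibiotic, then above 30% in a dose series; inconclusive = first-round hits that could not be retested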;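 note: growth measured after seven days incubation then overnight dye step; 0% = bacteria only wells and 100% = bacteria with antibiotic; twin plates without the antibiotic show which effects depend on it; some results filed as inactive read as strong as hits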
RecA intein inh = Mtb RecA intein splicing inhibition; P9WHJ3; cell-free RecA intein splicing, fluorescence; actives 0.75% (n = 290,000); inhibition, %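 (about 9 µM by stock and volumes)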; in the data active = inhibition above about 30%; inconclusive = no clear call, values can overlap the other calls;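 note: 0% = vehicle wells and 100% = reference inhibitor control wells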
Target sequence (P9WHJ3 whole entry, looked up): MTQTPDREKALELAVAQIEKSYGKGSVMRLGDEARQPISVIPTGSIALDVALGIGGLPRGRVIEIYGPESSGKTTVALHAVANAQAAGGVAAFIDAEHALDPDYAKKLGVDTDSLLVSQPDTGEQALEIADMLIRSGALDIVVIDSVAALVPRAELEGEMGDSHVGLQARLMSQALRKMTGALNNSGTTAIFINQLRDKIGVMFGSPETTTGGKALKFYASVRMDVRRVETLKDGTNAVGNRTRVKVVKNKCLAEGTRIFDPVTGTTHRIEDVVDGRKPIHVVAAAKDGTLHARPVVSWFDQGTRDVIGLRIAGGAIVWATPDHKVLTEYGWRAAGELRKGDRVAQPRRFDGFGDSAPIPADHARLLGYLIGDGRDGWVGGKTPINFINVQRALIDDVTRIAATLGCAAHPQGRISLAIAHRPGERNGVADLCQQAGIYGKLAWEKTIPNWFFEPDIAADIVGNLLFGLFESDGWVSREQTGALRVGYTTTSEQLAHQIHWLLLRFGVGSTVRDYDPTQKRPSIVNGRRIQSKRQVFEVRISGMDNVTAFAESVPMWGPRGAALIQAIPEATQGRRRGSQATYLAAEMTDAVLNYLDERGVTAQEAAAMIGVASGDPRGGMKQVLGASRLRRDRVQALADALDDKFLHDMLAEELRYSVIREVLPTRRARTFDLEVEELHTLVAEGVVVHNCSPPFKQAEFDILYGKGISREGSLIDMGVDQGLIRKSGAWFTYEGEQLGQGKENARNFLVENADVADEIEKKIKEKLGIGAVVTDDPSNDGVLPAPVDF
Mtb H37Rv = M. tuberculosis H37Rv growth inhibitors, H37Rv strain (AID 1626); M. tuberculosis H37Rv growth inhibition; higher % means a stronger effect; inhibition, % at 10 µM; hits with a dose series show IC50 in µM; actives 0.95% (n = 220,000);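 active = confirmed in a dose series; inconclusive = inhibition above 80% but not taken into the dose series; inactive = below 80% or under 30% at every dose of the series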;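 note: bacteria incubated seven days before Alamar blue readout; 0% = bacteria only wells and 100% = bacteria with antibiotic wells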
YopH inh = inhibitors of Yersinia enterocolitica YopH tyrosine phosphatase; fluorescence Ex485/Em525; inhibition, %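 (about 10 µM by stock and volumes)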; actives 0.16% (n = 140,000); AID 898;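 active = inhibition of 50% or more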;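 note: controls were vehicle for no effect and minimum signal wells for full effect; inactives centre near -20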
Arbovirus inh = antivirals against arbovirus infection. arbovirus infection cell-based antiviral screen. inhibition, % at 10 µM. actives 0.37% (n = 200,000). AID 1251;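 active = inhibition from about 30%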;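 note: bluetongue infection of BSR cells; cell survival read as ATP light after 72 h; 0% = infected wells without compound and 100% = uninfected wells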
Arbovirus inh repeat = recorded beside Arbovirus inh, whose call it bears; inhibition, %; measured here: 10K subset replicate screen; many hits read low in the repeat;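 first of two repeat runs on a subset; 0% = infected and 100% = uninfected wells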
Numbers without * were called inactive; u = inconclusive; x = no result given. Only part of the results is shown, so the mix of outcomes need not match the whole.

SMILES	Mtb bLac sens	RecA intein inh	Mtb H37Rv	YopH inh	Arbovirus inh	others
CCOc1cc(NC(=O)c2ccco2)c(OCC)cc1NC(=O)CCC(=O)NCc1cccnc1	-2.6	x	-1.9%	-38.6	3.3
Cn1nc(-c2ccc(Cl)cc2)c2cc(C(=O)N3CCN(C(=O)c4ccco4)CC3)sc21	6.4	x	-10.1%	-28.9	13.7	Arbovirus inh repeat=-20.1
O=C(c1ccc(N2CCCCCC2)c([N+](=O)[O-])c1)N1CCC2(CC1)OCCO2	-4.9	-0.6	1.0%	x	-3.0
CCOC(=O)C(C(=O)OCC)C(CC(=O)C1CC1)c1ccccc1 (configuration not stated)	-15.8	3.9	5.0%	-45.8	8.3
CC(=O)[C@]1(O)Cc2c(O)c3c(c(O)c2[C@@H](O[C@H]2C[C@H](N)[C@H](O)[C@H](C)O2)C1)C(=O)c1ccccc1C3=O	98.7	-16.1	u	x	x
Cc1cccc(OCCNC(=O)c2ccc(Oc3ccc(C(F)(F)F)cc3[N+](=O)[O-])cc2)c1	29.1	1.4	-1.0%	-17.7	-4.7
Cc1cccc(NC(=O)CSc2nnc(CCC(=O)Nc3ccc(C)c(Cl)c3)n2C)c1	-8.7	0.3	-2.7%	-26.0	-0.7
C/C(=N\NC=O)c1ccncc1	-2.0	0.3	-6.7%	x	1.4
Cc1ccc(Cn2c(C)c3cnn(CC(=O)N4CCC5(CC4)OCCO5)c(=O)c3c2C)cc1	-5.1	-2.8	x	-26.5	-0.6
CN(c1ccc(C(=O)N2CCCCCC2)cc1)S(=O)(=O)c1ccc(Cl)cc1	5.5	3.9	x	x	x
O=C(Nc1ccc(Cl)cc1Cl)C1=Cc2ccccc2OC1	94.3	-0.3	-12.2%	-27.6	4.3
CC(NC(=O)OC(C)(C)C)C(=O)N1CCCC1C(=O)NC(Cc1ccccc1)C(N)=O (configuration not stated)	-12.1	-2.5	-1.2%	-26.0	3.7
CCN(c1ccc(OC)cc1)S(=O)(=O)c1ccc(-c2ccc(=O)[nH]n2)o1	-17.8	2.4	x	x	x
COc1ccc(S(=O)(=O)NCC2CCCN(CC(C)(C)C)C2)cc1 (configuration not stated)	-2.6	1.0	-2.7%	x	-5.6
O=C(O)CN1C(=O)c2cccc3c(Br)ccc1c23	-3.0	-29.7	x	x	x
CC1CCCC(C)N1C(=O)COC(=O)Cc1ccc(F)cc1 (configuration not stated)	-0.3	2.4	x	x	x
COc1ccc(Cc2nnc(N/N=C/c3ccccc3O)[nH]c2=O)cc1OC	94.2	-1.2	2.1%	-25.0	-35.8
Cc1cc(NC(=O)c2ccc(S(=O)(=O)N(C)C)cc2)n(-c2ccccn2)n1	-15.4	1.3	-0.4%	-25.8	-2.1
O=C(Nc1ccccc1F)c1cc(Cl)sc1Cl	2.6	-0.2	x	x	x
CNC(=S)N(C1=NCC(c2ccc([N+](=O)[O-])cc2)S1)c1ccccc1 (configuration not stated)	3.5	-0.7	x	x	x
C/C(=N\NC(=O)c1ccc(Cn2cc(Br)cn2)o1)c1cccc(NC(=O)C(C)C)c1	-3.4	-1.6	5.1%	-12.9	7.8
COc1ccc(S(=O)(=O)N2CCCC2)cc1OC	0.0	0.5	x	x	x
Cc1cccc(NC(=O)CCNS(=O)(=O)c2cc(Br)cnc2N)c1C	-10.8	-4.0	x	x	x
CCN(CC(=O)NCc1cccs1)C(=O)c1ccc(NS(=O)(=O)c2ccc(F)cc2)cc1	-0.7	3.1	x	x	x
Cc1cc(=O)n(-c2ccccc2Cl)[nH]1	1.2	87.3*	-5.7%	x	-4.3
O=C(NCc1ccco1)C(=O)c1cn(CC(=O)N2CCCC2)c2ccccc12	-7.0	-0.9	x	x	8.8
Cc1cccc(NC(=O)c2nc[nH]c2C(=O)N[C@@H](C)C(=O)OC(C)(C)C)c1	96.4	-3.7	80.0%	x	x
O=c1cc(-c2ccccc2Cl)oc2c(NS(=O)(=O)c3cccc4nsnc34)ccc(O)c12	-0.7	6.5	-3.5%	x	x
Cc1ccnc(SC2CC(=O)N(c3ccc(C(C)C)cc3)C2=O)n1 (configuration not stated)	-9.4	3.6	x	x	x
Cc1ccc(C(CC(=O)c2ccc(Cl)cc2)C(=O)O)cc1 (configuration not stated)	-0.7	-1.4	x	x	6.2
Cc1ccnc2c(N3C(=O)C4C5C=CC(C5)C4(C)C3=O)cccc12 (configuration not stated)	u	0.3	-8.2%	-32.3	0.3	Arbovirus inh repeat=4.7
CC(C)N(Cc1ccccc1)S(=O)(=O)c1ccc(F)cc1	0.4	1.3	x	x	x
N#C/C(=C/c1ccc(N2CCOCC2)c([N+](=O)[O-])c1)C(N)=O	0.3	2.2	-10.1%	-18.2	-2.3
Cc1cc(C)cc(OCC(=O)OC/C(O)=C(\C#N)c2nc3ccccc3[nH]2)c1	63.9	0.6	13.0%	-28.2	7.9
COc1ccc(N2CCN(Cc3nc(N)nc(Nc4ccccc4OC)n3)CC2)cc1	81.6	-1.1	13.6%	-25.1	12.5
CCOc1ccc(NC(=S)NCc2cccnc2)cc1	-3.2	0.4	-3.4%	x	x
COc1ccccc1NC(=O)N1CCN(Cc2ccc3c(c2)OCO3)CC1	-5.7	-0.3	-7.8%	x	x
CC(=O)c1c(N2CCN(c3ccccc3)CC2)nc(=S)n(-c2ccccc2)c1C	67.2	1.2	0.1%	-32.6	-3.2	Arbovirus inh repeat=0.7
Cc1cc2ncn(CC3CC3(Cl)Cl)c2cc1C (configuration not stated)	9.7	2.0	4.0%	x	-13.4
CSc1nc(=O)n2cc(C)ccc2n1	0.1	3.1	0.1%	x	-2.9
COC(=O)C1=C(C)N(c2cccc(C(C)=O)c2)C(=O)C1	-0.3	2.0	-12.2%	-4.1	5.2
O=[N+]([O-])c1ccc(-c2nn(-c3ccccc3)cc2/C=N/n2c(-c3cccs3)n[nH]c2=S)cc1	7.2	0.7	1.6%	x	x
C=CCSc1cc(C)nc2c(-c3ccccc3)c(C)nn12	24.9	11.9	-1.6%	x	x
C/C(=N\NC(=O)c1cccc(S(=O)(=O)Nc2cccc(Cl)c2)c1)c1cccs1	9.3	-0.5	7.5%	-17.6	-20.2
COc1ccc(-c2cc(C(=O)NNC(=O)c3csc(N4CCOCC4)n3)c3ccccc3n2)cc1OC	36.4	4.3	x	x	x
O=C(CCCC(=O)N(CC(=O)NC1CCCC1)Cc1ccc(F)cc1)Nc1ccccn1	-9.2	-0.9	-3.6%	-17.4	-0.6
CC(C)(C)C1CCC2(CC1)NC(=S)N(c1ccccc1)N2 (configuration not stated)	87.9	0.3	u	-35.4	-33.7
O=C(Nc1ccc(Br)cn1)C1CCCN1S(=O)(=O)c1ccccc1 (configuration not stated)	88.5	0.9	-17.9%	-14.8	15.2
CC(Sc1nn(-c2ccc(Cl)cc2)c(=S)s1)C(=O)NCC1CCCO1 (configuration not stated)	0.6	0.1	x	x	x
CC(=O)Nc1ccc(OCCOc2ccccc2C(C)=O)cc1	0.0	-0.8	x	x	x
Cc1ccc(NC(=S)c2ccc3ccccc3n2)c(C)c1	-2.4	-1.4	x	x	x
COc1ccc(C(=O)N2CCN(C(=O)Cc3ccccc3)CC2)cc1	-2.2	3.4	-1.6%	x	0.6
Cc1cc[n+](-c2nc3ccccc3nc2[N-]S(=O)(=O)c2cccs2)cc1C	-0.4	-1.6	-10.2%	-29.6	-4.1
CCOC(=O)C1CCCN(C(=O)c2ccc(OC(C)=O)cc2)C1 (configuration not stated)	1.0	0.0	-10.0%	-45.0	8.7
Cc1ccc(OCCn2c(=S)[nH]c3ccccc32)c(C(C)C)c1	5.7	9.2	x	x	x
CC1=C(C(=O)OC(C)C)C(c2cccc(F)c2)N2C(=O)C(C)SC2=N1 (configuration not stated)	-5.5	7.4	-11.7%	-5.4	-0.8
O=C(N/N=C/c1ccco1)c1cc(-c2ccc3ccccc3c2)n[nH]1	32.1	2.8	x	-11.8	-44.5
CC(=O)c1ccc(N2CCN(C(=O)CCS(=O)(=O)c3ccc4c(c3)CCN4C(C)=O)CC2)cc1	6.0	-4.0	x	x	x
CC(=O)c1cn(Cc2ccccc2)c(=O)n(Cc2ccc(F)cc2)c1=O	6.1	2.3	6.9%	x	1.4
Cn1c(=O)[nH]c(=O)c2c1nc(N/N=C/c1cccnc1)n2Cc1ccc(Cl)cc1	6.7	x	-3.2%	x	x
Additional records follow.
SMILES	Mtb bLac sens	RecA intein inh	Mtb H37Rv	YopH inh	Arbovirus inh	others
CN1CCN(S(=O)(=O)c2ccc(NC(=S)NC(=O)C3CCC3)cc2)CC1	1.4	-7.9	3.9%	-27.6	6.3
COc1ccccc1OCCC(=O)OCC(=O)Nc1ccc(S(=O)(=O)N2CCOCC2)cc1	-7.0	3.8	-9.9%	x	-2.9
COc1ccc(-n2cnnc2SCc2cnc(-c3ccccc3)s2)cc1	-9.6	-0.5	12.3%	-28.2	-2.8
CCCN1CCN(C(=O)c2noc3c2COc2ccc(C)cc2-3)CC1	5.9	-0.7	x	x	x
COc1ccc(S(=O)(=O)N2CCC(Nc3ccccc3Cl)CC2)cc1	-4.1	10.6	x	x	x
COc1ccc(Cl)cc1C(=O)Nc1ccc(NC(=O)C(C)C)cc1	0.1	-3.8	6.2%	x	-1.8
CN(C)S(=O)(=O)c1cccc(COC(=O)c2cccnc2Cl)c1	-1.1	0.6	x	x	x
NC(=O)c1ccc(NC(=O)COC(=O)CCC(=O)c2ccc(Cl)cc2)cc1	0.5	-2.1	1.3%	x	5.2
Cc1ccc(S(=O)(=O)N(C)C)cc1NC(=O)c1cc(=O)[nH]c2ccccc12	-2.6	-1.6	-7.0%	x	-0.1
CCOC(=O)N1CCC(NC(=O)c2ccc3nc4ccccc4c(=O)n3c2)CC1	x	x	x	-16.5	0.6
CCOc1cccc(C=NCCc2ccc(OC)c(OC)c2)c1O	3.7	-0.1	x	x	x
CC(=O)Oc1ccc(C(=O)Cc2ccc3ccccc3n2)c(O)c1C	2.5	-5.3	12.1%	6.1	0.9
Cc1ccc(/C=N/NC(=O)Cc2cccn2C)s1	0.5	-2.0	1.8%	-16.7	4.1
O=C(NNC(=S)Nc1ccc(Br)cc1Cl)c1ccncc1	-5.0	5.7	u	-34.2	1.5
O=C(O)c1ccc(NS(=O)(=O)c2ccc(C(=O)Nc3ccccc3)cc2)cc1	-4.0	-4.1	x	x	x

Grouped by structure, those above with two or more sulfur atoms
SMILES	Mtb bLac sens	RecA intein inh	Mtb H37Rv	YopH inh	Arbovirus inh	others
CNC(=S)N(C1=NCC(c2ccc([N+](=O)[O-])cc2)S1)c1ccccc1 (configuration not stated)	3.5	-0.7	x	x	x
CCN(CC(=O)NCc1cccs1)C(=O)c1ccc(NS(=O)(=O)c2ccc(F)cc2)cc1	-0.7	3.1	x	x	x
O=c1cc(-c2ccccc2Cl)oc2c(NS(=O)(=O)c3cccc4nsnc34)ccc(O)c12	-0.7	6.5	-3.5%	x	x
O=[N+]([O-])c1ccc(-c2nn(-c3ccccc3)cc2/C=N/n2c(-c3cccs3)n[nH]c2=S)cc1	7.2	0.7	1.6%	x	x
C/C(=N\NC(=O)c1cccc(S(=O)(=O)Nc2cccc(Cl)c2)c1)c1cccs1	9.3	-0.5	7.5%	-17.6	-20.2
CC(Sc1nn(-c2ccc(Cl)cc2)c(=S)s1)C(=O)NCC1CCCO1 (configuration not stated)	0.6	0.1	x	x	x
Cc1cc[n+](-c2nc3ccccc3nc2[N-]S(=O)(=O)c2cccs2)cc1C	-0.4	-1.6	-10.2%	-29.6	-4.1
CN1CCN(S(=O)(=O)c2ccc(NC(=S)NC(=O)C3CCC3)cc2)CC1	1.4	-7.9	3.9%	-27.6	6.3
COc1ccc(-n2cnnc2SCc2cnc(-c3ccccc3)s2)cc1	-9.6	-0.5	12.3%	-28.2	-2.8
